Mtb MenB inh = M. tuberculosis MenB inhibitors, primary screen, biochemical, absorbance; AID 540299, 2011; 0.43% of 100,000 active; 1,4-dihydroxy-2-naphthoyl-CoA synthase (Mycobacterium tuberculosis (strain ATCC 25618 / …; inhibition, %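 (about 12 µg/mL by stock and volumes)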; MenB enzyme assay, absorbance read-out; some hits fall short of the stated cut;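 active = mean of two replicates above 30%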;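 also: 0% = no compound and 100% = wells with inactive enzyme; the first replicate is given; strong numbers were not always called active; inactives centre near -10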
Target sequence (P9WNP5 whole entry, looked up): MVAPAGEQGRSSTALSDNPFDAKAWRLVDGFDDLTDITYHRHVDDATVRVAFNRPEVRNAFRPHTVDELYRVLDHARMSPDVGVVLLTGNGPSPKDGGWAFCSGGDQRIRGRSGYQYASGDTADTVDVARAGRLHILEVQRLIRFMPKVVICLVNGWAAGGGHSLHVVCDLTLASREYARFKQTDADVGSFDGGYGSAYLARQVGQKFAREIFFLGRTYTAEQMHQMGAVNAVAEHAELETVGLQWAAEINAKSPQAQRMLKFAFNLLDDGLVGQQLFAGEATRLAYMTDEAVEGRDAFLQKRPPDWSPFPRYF
Mtb MbtI inh = MbtI salicylate synthase inhibitors, primary screen, biochemical, fluorescence intensity | AID 493033, 2011 | inhibition, %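 (about 17 µg/mL by stock and volumes)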 | 0.89% of 100,000 active | purified MbtI enzyme, fluorescence intensity read-out | P9WFX0;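 active = above 50% in both replicates, above 80% if mildly self-fluorescent; inactive = the rest, strongly fluorescent compounds included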;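 also: 0% = mean of negative and 100% = mean of positive controls; one replicate is shown; some compounds called inactive have numbers as strong as hits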
Polio RdRp inh = poliovirus RdRp elongation inhibitors, primary screen, biochemical, fluorescence polarization, total intensity | % elongation, % (compound at 16.7 µg/mL) | 0.66% of 150,000 active | poliovirus polymerase elongation; hits give low values | Genome polyprotein (Poliovirus type 1 (strain Mahoney)), P03300; in the data active = % elongation below about 90%; also: some results filed as inactive read as strong as hits
Target sequence (P03300 1749-2209 limits assumed): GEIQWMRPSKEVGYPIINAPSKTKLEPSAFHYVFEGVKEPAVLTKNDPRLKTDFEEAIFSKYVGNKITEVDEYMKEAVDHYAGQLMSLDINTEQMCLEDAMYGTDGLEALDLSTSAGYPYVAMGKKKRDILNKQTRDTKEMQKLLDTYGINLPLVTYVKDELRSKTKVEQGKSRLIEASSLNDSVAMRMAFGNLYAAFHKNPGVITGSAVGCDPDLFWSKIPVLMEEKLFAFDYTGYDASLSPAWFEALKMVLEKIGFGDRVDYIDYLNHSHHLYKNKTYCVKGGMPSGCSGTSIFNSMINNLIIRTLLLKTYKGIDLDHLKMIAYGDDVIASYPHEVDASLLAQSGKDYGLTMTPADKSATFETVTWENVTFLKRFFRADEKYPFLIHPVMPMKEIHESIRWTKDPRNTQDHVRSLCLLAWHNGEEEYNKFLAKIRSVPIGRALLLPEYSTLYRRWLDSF
Polio RdRp inh intensity = also measured in Polio RdRp inh; calls as there; % elongation; measured here: total intensity read-out; formula for this scale not given here;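 total fluorescence in place of polarization; lower means less elongation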
Active calls of the source: *; . = not tested or not shown; & = joins results of further samples.

SMILES	Mtb MenB inh	Mtb MbtI inh	Polio RdRp inh	Polio RdRp inh intensity
O=C(Cc1cn2ccsc2n1)Nc1ccccc1	.	-8.1	101.0	105.0
CC(C)(C)c1nc(N2CCN(C(=O)c3ccco3)CC2)c2nnn(Cc3ccccc3Cl)c2n1	23.5*	23.4	103.0	102.0
CSc1nc(C)cc(Oc2ccccc2)n1	-9.5	2.5	101.0	103.0
O=C(Cc1ccccc1)N1CCN=C1SCc1ccccc1	-16.0	-0.5	103.0	106.0
CCOc1ccc(-c2cccc(NS(=O)(=O)N(C)C)c2)nn1	-16.1	-26.4	103.0	102.0
O=C1c2ccccc2-c2onc3c(Br)cc(N4CCCCC4)c1c23	-3.4	-3.4	71.0	196.0
Fc1ccc(-n2cc(-c3ccc4c(c3)OCO4)[nH]c2=S)cc1	0.6	43.8	101.0	109.0
COc1cc(-c2nn(CCC(N)=O)cc2/C=C(\C#N)C(=O)O)ccc1OC(F)F	-20.7	0.0	103.0	106.0
C=CCc1ccccc1OCC(O)CNC(C)C (stereo not drawn)	-7.8	-4.5	100.0	100.0
Cc1ccccc1-c1nnn(CC(=O)N2N=C(c3ccc(Cl)cc3)CC2c2ccco2)n1 (stereo not drawn)	0.7	-3.8	103.0	108.0
COc1ccc(S(=O)(=O)N2CCC(NC(=O)NCCC(C)C)CC2)cc1	-12.1	4.7	103.0	98.0
S=C(NCCN1CCOCC1)N/N=C/c1ccccc1	-1.5	23.1	106.0	106.0
COC(=O)[C@@H](Cc1c[nH]c2ccccc12)NC(=O)c1ccc2nc[nH]c2c1	-11.9	2.7	104.0	105.0
Cc1scc(C(=O)NCC2CCCCC2)c1C	-1.5	-2.0	100.0	104.0
Cc1cc(C(=O)NC(C)C)n(-c2ccccc2)n1	2.7	9.9	100.0	102.0
Oc1ccccc1-c1nc(N2CCCCCC2)c2ccccc2n1	-2.7	-3.3	102.0	103.0
CCOC(=O)NC1c2ccccc2Oc2ccc(OC)cc21 (stereo not drawn)	3.9	-5.1	99.0	102.0
O=C(Nc1cccnc1)Nc1c[nH]c2c(Cl)cccc2c1=O	-39.2	-2.0	106.0	101.0
N#Cc1c(NC(=O)CCSc2nnc3ccccn23)sc2c1CCCC2	-51.8	-46.5	104.0	95.0
CCC(SC1=N/C(=C/c2ccccc2)C(=O)N1c1ccccc1)C(=O)Nc1cc(C)on1 (stereo not drawn)	-66.1	-53.3	101.0	105.0
CCOc1ccc(CNc2ccc(O)cc2)cc1	-10.3	12.8	96.0	92.0
CCC(=O)/C(C)=C/c1ccco1	-38.1	22.0	99.0	102.0
Cc1c(OCc2ccc(Cl)cc2Cl)ccc2c1OC(C)(C)CC2=O	-4.7	-15.3	102.0	97.0
CCCCc1cc(C)c2[nH]cc(C(=O)O)c(=O)c2c1	2.2	0.0	106.0	130.0
CCCCNc1nnc(SC(C)C(=O)NC(=O)NC)s1 (stereo not drawn)	5.9	5.9	101.0	104.0

Next section
SMILES	Mtb MenB inh	Mtb MbtI inh	Polio RdRp inh	Polio RdRp inh intensity
Cc1cc(/C=N/n2cnc3c(cnn3-c3ccccc3)c2=O)c(C)n1CC(C)C	-27.4	2.3	101.0	105.0
Cn1c(SCc2ccccc2)nnc1C1CCCN(CC(=O)Nc2ccc3c(c2)OCO3)C1 (stereo not drawn)	-52.1	-0.5	103.0	106.0
Cc1noc(C)c1C(=O)N(CC(=O)NC1CCCC1)Cc1ccccc1F	22.7	14.1	103.0	102.0
CC(OC(=O)c1ccccc1NS(=O)(=O)c1ccc2[nH]c(=O)[nH]c2c1)C(=O)N1CCCCC1 (stereo not drawn)	4.8	-42.9	105.0	103.0
COc1ccc2c(c1OC)C(=O)OC2Nc1nc2ccc(OC(F)(F)F)cc2s1 (stereo not drawn)	-25.9	.	101.0	103.0
CC(C)NC(C)(C)C#N	2.1	0.2	100.0	103.0
C#CC1(OC(C)=O)C(C)CN(C)CC1C (stereo not drawn)	-7.4	-4.7	101.0	100.0
COc1ccc(-c2[nH]ncc2C(=O)O)cc1	2.3	3.3	100.0	99.0
O=C(Sc1ccc(Cl)cc1Cl)c1csc(-c2ccc3nonc3c2)n1	9.4	10.8	100.0	102.0
CC(C(=O)NC1CCCC1)N(C)CCOc1ccc(Cl)cc1 (stereo not drawn)	-0.5	0.6	103.0	93.0
Cc1ccc(CN(C)CC(=O)Nc2ccccc2Cc2ccccc2)o1	-35.2	-5.8	98.0	102.0
COc1ccc(O)c(C=Nc2ccccc2)c1	.	-10.8	101.0	96.0
CC(=O)N1CCc2cc(C(O)CN3CCN(c4cc(Cl)ccc4C)CC3)ccc21 (stereo not drawn)	-8.4	7.7	100.0	101.0
Cc1ccsc1CNCCCO	-11.6	-10.0	103.0	102.0
CCN1C(=O)/C(=C2\C=Cc3ccccc3N2CC)SC1=S	-21.5	-25.0	105.0	99.0
COc1ccc(C2CC(C(F)(F)F)n3ncc(C(=O)NCC4CCCO4)c3N2)cc1OC (stereo not drawn)	-3.9	-11.2	102.0	108.0
COc1cc(OC)c(C(=O)OC2CCCC2=O)cc1OC (stereo not drawn)	-13.2	-8.3	102.0	106.0
CC1=C(C(=O)O)N2C(=O)[C@@H](NC(=O)C(N)c3ccccc3)[C@H]2SC1 (stereo partly drawn)	-4.2	-20.8	99.0	102.0
CCc1nc2ccccc2n1C(=O)CCCC(=O)O	.	-10.1	103.0	100.0
O=C(N/N=C/C1=C(N2CCOCC2)C(=C\c2ccccc2)/CC1)NC1CCCCC1	-10.5	9.6	104.0	101.0
COc1ccc(COCC(O)CN2CC(C)OC(C)C2)cc1 (stereo not drawn)	5.1	-2.5	100.0	110.0
CCOC(=O)C1CCCN(CC(=O)Nc2c(F)c(F)c(F)c(F)c2F)C1 (stereo not drawn)	7.6	5.2	99.0	102.0
C=CCN1C(=O)/C(=C\c2cc(OC)c(O)c(OC)c2)SC1=S	-111.3	8.8	111.0	118.0
Cc1ccc(S(=O)(=O)CCSc2nccn2C)cc1	-6.5	-7.1	104.0	106.0
OC(C#Cc1ccccc1)c1ccco1 (stereo not drawn)	-63.0	25.4	103.0	105.0

New compounds follow
SMILES	Mtb MenB inh	Mtb MbtI inh	Polio RdRp inh	Polio RdRp inh intensity
O=C(Cc1ccccc1Cl)NC1(O)C(=O)c2ccccc2C1=O	-9.6	-9.1	83.0*	85.0*
CC(=O)N1CCN(C(=O)c2cccc(Oc3ccccc3)c2)CC1	.	-9.4	103.0	104.0
COc1ccc(C2CC(c3ccc(C)cc3)=NN2S(=O)(=O)c2ccc(C)cc2)cc1 (stereo not drawn)	-4.7	0.1	106.0	128.0
CC(C)Cn1c(N)c(C(=O)CSc2ncccn2)c(=O)n(C)c1=O	-16.2	22.2	101.0	99.0
S=c1[nH]nc(SCc2ccccc2)s1	-12.3	87.0*	98.0	101.0
CCSc1nnc(-c2ccncc2)n1Cc1ccccc1	-11.5	-11.4	100.0	103.0
CC(C)CCC1(C)NC(=O)N(Cc2ccc(C#N)cc2)C1=O (stereo not drawn)	11.2	-5.5	105.0	108.0
CCCCn1c(SC2CCCCC2=O)nc2cc(S(N)(=O)=O)ccc21 (stereo not drawn)	3.7	0.0	106.0	111.0
O=c1[nH]nc(SCc2ccccc2)n1C1CC2C=CC1C2 (stereo not drawn)	-7.6	.	104.0	98.0
CN(CCOc1cccc(C(F)(F)F)c1)Cc1ccccc1	9.0	15.7	98.0	99.0
COC(=O)c1cc2c(s1)=NC=NP=2(N1CCOCC1)N1CCOCC1	-7.5	-133.8	106.0	107.0
O=S(=O)(NC1CN2CCC1CC2)c1ccc(Cl)cc1 (stereo not drawn)	4.6	-6.6	106.0	105.0
C/C(Cc1ccccc1OC(=O)c1ccccc1)=N/O	.	-12.8	103.0	105.0
CC1CN(C(=O)N2CCC(C(=O)O)CC2)c2cc(Cl)ccc2O1 (stereo not drawn)	3.7	10.1	104.0	99.0
Nc1nc(CSc2nnc(-c3ccccc3O)n2Cc2ccccc2)cs1	1.2	-24.2	102.0	103.0
N#C/C(=C\c1ccc(-c2cc(C(F)(F)F)cc(C(F)(F)F)c2)o1)C(=O)NCCc1c[nH]c2ccccc12	4.3	-0.5	103.0	94.0
O=S(=O)(NC1CCCC1)c1cccc2cccnc12	-5.0	6.5	103.0	107.0
CC(N)C(=O)c1cccs1 (stereo not drawn)	-13.2	-1.1	104.0	104.0
CC1(C)CC(=O)C(C=NCc2ccccc2)=C(O)C1	20.2	-4.8	99.0	103.0
O=C1NC(=O)N(Cc2ccccc2)C(=O)/C1=C\c1ccccc1	-49.2	33.7	98.0	95.0
CCC(CC)NC(=O)CSc1nnc(-c2ccc(C)cc2)n1N	-39.3	92.2	78.0*	83.0*
CCN1CC=C2C(C#N)=C(N)C(C#N)(C#N)C(C)C2C1 (stereo not drawn)	-218.0	62.3	66.0	147.0
CC(C)(C)c1ccc(OCC(=O)NC(c2ccccc2)c2ccccc2)cc1	-2.4	.	105.0	104.0
NC(=O)C1CCN(CC(O)(c2ccccc2)c2ccccc2)CC1	8.6	-2.8	106.0	111.0
CCCCC[C@H](O)/C=C/[C@H]1C(=O)C[C@H](O)[C@@H]1C/C=C\CCCC(=O)O	1.0	-16.1	103.0&100.0	103.0&103.0

In the list so far, 11 have an aryl methoxy group.
SMILES	Mtb MenB inh	Mtb MbtI inh	Polio RdRp inh	Polio RdRp inh intensity
COc1cc(-c2nn(CCC(N)=O)cc2/C=C(\C#N)C(=O)O)ccc1OC(F)F	-20.7	0.0	103.0	106.0
COc1ccc(S(=O)(=O)N2CCC(NC(=O)NCCC(C)C)CC2)cc1	-12.1	4.7	103.0	98.0
CCOC(=O)NC1c2ccccc2Oc2ccc(OC)cc21 (stereo not drawn)	3.9	-5.1	99.0	102.0
COc1ccc2c(c1OC)C(=O)OC2Nc1nc2ccc(OC(F)(F)F)cc2s1 (stereo not drawn)	-25.9	.	101.0	103.0
COc1ccc(-c2[nH]ncc2C(=O)O)cc1	2.3	3.3	100.0	99.0
COc1ccc(O)c(C=Nc2ccccc2)c1	.	-10.8	101.0	96.0
COc1ccc(C2CC(C(F)(F)F)n3ncc(C(=O)NCC4CCCO4)c3N2)cc1OC (stereo not drawn)	-3.9	-11.2	102.0	108.0
COc1cc(OC)c(C(=O)OC2CCCC2=O)cc1OC (stereo not drawn)	-13.2	-8.3	102.0	106.0
COc1ccc(COCC(O)CN2CC(C)OC(C)C2)cc1 (stereo not drawn)	5.1	-2.5	100.0	110.0
C=CCN1C(=O)/C(=C\c2cc(OC)c(O)c(OC)c2)SC1=S	-111.3	8.8	111.0	118.0
COc1ccc(C2CC(c3ccc(C)cc3)=NN2S(=O)(=O)c2ccc(C)cc2)cc1 (stereo not drawn)	-4.7	0.1	106.0	128.0

New compounds follow
SMILES	Mtb MenB inh	Mtb MbtI inh	Polio RdRp inh	Polio RdRp inh intensity
CN1CCCN(c2nc3ccccc3nc2NS(=O)(=O)c2ccc(Cl)cc2)CC1	-24.6	-10.5	104.0	107.0
Cc1onc(-c2c(Cl)cccc2Cl)c1/C(N)=N/OC(=O)C1CC1	-17.0	-5.4	104.0	105.0
NC(=O)c1cc(NC(=O)C2CCCC2)cc(C(N)=O)c1	-12.7	-7.2	105.0	102.0
COc1ccc(CCNC(=O)CSc2ccccc2C(=O)N2CCN(C(C)=O)CC2)cc1OC	7.9	-2.2	102.0	108.0
CC1CC(C)CN(S(=O)(=O)c2ccc(C(=O)OCc3nnc(-c4ccc(Cl)cc4)o3)cc2)C1 (stereo not drawn)	-18.3	-12.8	108.0	113.0
COc1nc2ccccc2nc1CCC(=O)O	5.2	115.6	99.0	102.0
O=C1Cn2c(nc3ccccc32)N1c1ccccc1F	-11.3	-3.2	99.0	102.0
CC1=C(C(=O)N(C)C)C(c2ccccc2Cl)NC(=O)N1 (stereo not drawn)	-36.3	3.4	102.0	101.0
Cc1ccc(Cn2c(CO)cnc2SCC(=O)N2CC(C)OC(C)C2)cc1 (stereo not drawn)	-10.3	2.0	.	.
Clc1ccc(-c2csc(COc3ccc4nonc4c3)n2)cc1	-18.6	-5.8	103.0	108.0
FC(F)(F)c1ccccc1-c1ccc(-c2nnc(-c3ccco3)o2)o1	-23.8	109.4	.	.
O=C(Nc1c(Cl)cccc1Cl)N1CCOC12CCCCC2	-4.9	-12.5	102.0	100.0
O=C(Nc1ccc(Oc2ncnc3sc4c(c23)CCCCC4)cc1)c1ccco1	-34.3	-9.4	99.0	103.0
C=CCOc1ccccc1CN(C(=O)c1ccco1)c1ccc2c(c1)OCO2	-33.5	1.0	106.0	108.0
Cc1ccc(C(=O)CS(C)(=O)=O)cc1	3.3	9.1	99.0	101.0
COc1ccc2oc(C(=O)OCc3cc(=O)oc4cc(C)ccc34)c(C)c2c1	-22.2	7.3	105.0	113.0
COC(=O)C1CN(C(=O)c2ccc(C(C)(C)C)cc2)c2ccccc2O1 (stereo not drawn)	0.1	6.1	99.0	101.0
O=C(OCCNc1nc(-c2ccccc2)nc2ccccc12)c1ccncc1	4.9	.	102.0	101.0
Cc1cc(C)[n+]2nc(-c3ccccc3)sc2n1	.	93.4	104.0	103.0
Cn1cc(C(=O)O)ccc1=O	-33.4	8.5	103.0	102.0
CN1C2CCC1/C(=C\c1ccccc1)C(=O)/C2=C\c1ccccc1	-14.4	-0.3	102.0	103.0
c1ccc(-c2cnc3nonc3n2)cc1	-0.6	.	85.0	121.0
